# RmlC RmlD mix = RmlC and RmlD coupled enzyme inhibitors, primary screen, biochemical, 384-well, compound mixtures, retest. RmlC/RmlD coupled enzyme inhibition, 384-well mixture HTS. 0.39% of 110,000 active. inhibition, % at 5.5 µM; in the data active = inhibition above about 30%, passing the limit was not always enough; only retested compounds are shown here; note: strong numbers were not always called active
# RmlC RmlD mix retest = recorded beside RmlC RmlD mix, whose call it bears; inhibition, %; measured here: mean retest inhibition;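 single compounds in two wells; values far above 100% likely come from compound fluorescence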
# The depositor's hits bear a star; i = inactive; x = not tested or not shown; + = active, no number. These rows are one share of the data (hit frequency here may not be typical).
# Below each compound: RmlC RmlD mix, RmlC RmlD mix retest
- CCS(=O)(=O)N1Cc2ccccc2CC1C(=O)N1CCN(c2ccccc2)CC1 (stereo not drawn)
    47.3, 0.9
- CC(=O)c1cccc(NC(=O)Nc2cccnc2)c1
    36.0, 2.8
- Nn1c(SCC(=O)N2CCc3ccccc3C2)nnc1-c1cccs1
    33.8, -11.5
- O=C(Nc1ccc([N+](=O)[O-])cc1)/C(=C/c1cccc([N+](=O)[O-])c1)NC(=O)C1CCCCC1
    138.3, -8.3
- Cc1ccc(NC2=NC(C(=O)Nc3ccc(C)c(C)c3)CC(=O)N2)cc1 (stereo not drawn)
    107.6, 1.1
- CCOC(=O)C(CSCC(=O)c1ccc(Cl)cc1)NC(=O)OC(C)(C)C (stereo not drawn)
    46.3, -9.6
- Cc1ccc(/C(O)=C2/C(=O)C(=O)N(Cc3ccco3)C2c2cccs2)cc1 (stereo not drawn)
    37.0, 11.4
- COc1cccc(-c2csc(N3CCN(C(=O)Nc4ccc(F)cc4)CC3)n2)c1
    126.3, 4.0
- Brc1ccc(-c2cn3cccnc3n2)cc1
    45.3*, 72.1*
- COC(=O)CNC(=O)COC(=O)c1cc(Cl)cc(Cl)c1N
    105.0, 27.1
- O=C(NCCN1CCN(c2ccccc2F)CC1)C1c2ccccc2C(=O)N2CCc3ccccc3C12 (stereo not drawn)
    i, -18.0
- Cc1c(Cl)cccc1NC(=O)CCN1CCCCC1
    30.3, -12.5
- COC(=O)C1=C(C)NC(C)=C(C(=O)OC)C1c1ccccc1OCc1c(C)no[n+]1[O-]
    131.5, -2.1
- CC(C)c1cc(C(C)C)c(S(=O)(=O)N2c3ccccc3[C@@]3(Br)C[C@H]4C(=O)N[C@@H](Cc5ccccc5)C(=O)N4[C@@H]23)c(C(C)C)c1
    67.4, -1.1
- Cc1nnc(SCC(=O)N2CCc3ccccc32)n1-c1ccccc1
    44.1, 3.3
- COc1ccc(Cl)cc1N1C(=O)C2CCCN2C1c1cccc(F)c1 (stereo not drawn)
    33.0, -8.7
- CC(C)NCCCOc1ccc(C(C)(C)c2ccccc2)cc1
    32.2, -4.5
- Cc1cccc(C)c1NS(=O)(=O)c1ccc(F)cc1
    64.1, -14.4
- CC1(C)CC(=O)C2=C(C1)OC(N)=C(C#N)C21C(=O)N(CN2CCOCC2)c2ccccc21 (stereo not drawn)
    48.3, -9.6
- COC(=O)C1=CN(CCCN2CCCC2=O)C=C(C(=O)OC)C1c1ccccc1C(F)(F)F
    68.4*, 46.4*
- O=C(CCN1C(=O)c2ccccc2C1=O)Nc1sc2c(c1C(=O)NCc1ccco1)CCCC2
    68.8, -3.2
- C#CCOCCOCCOCCNc1nc(N2CCN(C(=O)[C@H](CCC(=O)O)n3cc(C(N)Cc4ccc(O)cc4)nn3)CC2)nc(N2CCN(C(=O)[C@H](CCC(=O)O)n3cc(C(N)Cc4ccc(O)cc4)nn3)CC2)n1 (stereo partly drawn)
    71.7, -4.9
- O=C(NCCCN1CCOCC1)c1ccc(S(=O)(=O)N2CCOCC2)cc1
    43.5, 1.3
- COc1ccc(C(=O)NCC(c2cccnc2)N2CCN(c3ccc(F)cc3)CC2)cc1OC (stereo not drawn)
    36.2, -2.4
- Cc1ccc(-n2c(-c3ccccc3)cc(=O)nc2C)cc1
    33.3, -7.0
- CCCCOCCCNC(=O)c1cccs1
    158.0, -9.0
- COc1ccc(NC(=O)c2oc3ccccc3c2NC(=O)COc2ccccc2OC)c(OC)c1
    103.8*, x
- CCN(CCCCN1C(=O)c2ccccc2C1=O)c1ccc2c(c1)C(=O)N(C)C2=O
    135.2, 3.9
- O=C(c1ccc(F)cc1)c1c[nH]c(C(=O)NCc2cccnc2)c1
    81.9, -6.9
- N#Cc1c(N)n(CCOC(=O)c2cccc([N+](=O)[O-])c2)c2nc3ccccc3nc12
    45.5*, 46.7*
- COc1ccc(-c2nnc(SCCc3ccccc3)n2N)cc1
    33.9, -8.6
- O=C1NC(c2ccc(Br)cc2)Nc2sc3c(c21)CCC3 (stereo not drawn)
    37.7, -6.8
- Cc1ccc2c(c1)N(CCCC(=O)NCC1COc3ccccc3O1)C(=O)CO2 (stereo not drawn)
    70.0, -6.6
- Cc1ccc(OCCn2c(=O)cnc3ccccc32)cc1
    42.5, 10.8
- O=C(OCC(=O)N1CCN(C(=O)c2ccco2)CC1)c1cc(-c2ccco2)nc2ccccc12
    30.3*, 33.1*
- Cc1coc2cc3oc(=O)c4c(c3cc12)CCCC4
    46.5, -8.7
- COc1ccc(OC)c(C2c3c(oc4ccccc4c3=O)C(=O)N2CCCN(C)C)c1 (stereo not drawn)
    117.1, 14.9
- O=C(Cc1cccs1)NCc1ccc(F)cc1
    101.5, -6.9
- Cc1c(C)c2cc(Cl)c(O)c(CN3CCN(C)CC3)c2oc1=O
    97.3*, 87.5*
- Cc1sc(NC(=O)CSc2nc(N)n(CC(=O)c3ccccc3)n2)c(C#N)c1C
    66.7, 4.8
- O=C(Nc1ccc(N2CCN(C(=O)c3ccccc3)CC2)c(Cl)c1)c1cccnc1
    30.2, -2.5
- CSc1nc(C)c(C(=O)Nc2ccccc2)c(C)c1C#N
    32.5, -10.0
- O=C(O)c1ccccc1S(=O)(=O)NCC(O)COc1ccc(Br)cc1 (stereo not drawn)
    130.9, -9.9
- COc1ccc(S(=O)(=O)N2CCCC(C(=O)NC3CCCCC3)C2)cc1 (stereo not drawn)
    64.8, 2.0
- CSc1ccc(-c2c(C#N)c(N)nc3c2CCCC3)cc1
    33.4*, 103.5*

# Entries of single compounds as entered above:
# Record of COc1ccc(S(=O)(=O)N2CCCC(C(=O)NC3CCCCC3)C2)cc1 (stereo not drawn) = RmlC RmlD mix = 64.8; RmlC RmlD mix retest = 2.0
# Record of O=C(O)c1ccccc1S(=O)(=O)NCC(O)COc1ccc(Br)cc1 (stereo not drawn) = RmlC RmlD mix = 130.9; RmlC RmlD mix retest = -9.9

# Later entries
# Below each compound: RmlC RmlD mix, RmlC RmlD mix retest
- CCOc1cccc(NC(=O)C2CCCN(S(=O)(=O)c3ccc(OC)cc3)C2)c1 (stereo not drawn)
    30.2, -11.1
- CCCCc1cc(=O)oc2c(CN(C)C)c(O)c(Cl)cc12
    70.0*, 136.1*
- O=C(Nc1ccc2c3c(cccc13)CC2)c1ccco1
    31.5, 2.0
- Cc1c(NC(=O)c2ccccc2N)cccc1C(=O)O
    63.0, -12.2
- CCOc1cc(NC(=O)c2ccco2)c(OCC)cc1NC(=O)c1cc(OC)c(OC)c(OC)c1
    +, x
- Clc1ccc(-n2nnnc2CN2CCCCC2)cc1Cl
    113.3, -17.2
- NS(=O)(=O)c1ccc(N2N=C(c3ccccc3)CC2c2ccc(F)cc2)cc1 (stereo not drawn)
    148.9*, 193.1*
- CNC(=O)c1cc2c(ccc3ccccc32)oc1=N
    52.7*, 155.3*
- CC(C)c1nc(SCC(=O)Nc2nc3c(s2)CCCC3)c2ccccc2n1
    53.6, -2.0
- COC(=O)Cc1cc(=O)oc2c(C)c(O)ccc12
    115.2*, 107.7*
- COc1ccccc1NC(=O)C1CCCN(c2cc(C)nc3ncnn23)C1 (stereo not drawn)
    30.2, -12.4
- COn1c(SCc2cccnc2)nc2ccccc2c1=O
    31.9, 2.3
- O=C(NCCOC(=O)c1ccc(C(=O)OCCNC(=O)c2ccccc2)o1)c1ccccc1
    57.8, -4.2
- Cc1cc(-c2nnc3n2N=C(C(C)(C)C)CS3)n[nH]1
    45.3, -8.7
- COc1ccc2cc(CN(Cc3cccnc3)Cc3nnnn3Cc3ccccc3)c(=O)[nH]c2c1
    32.7*, 33.0*
- O=C(Nc1ccc2c(c1)OCO2)c1cnn2c(C(F)(F)F)cc(-c3ccco3)nc12
    31.7, 4.4
- CCN1CC=C(c2c[nH]c3ccccc23)CC1
    37.3, -9.1
- Cc1cc2nc(-c3ccc(SCC(=O)N4CCN(C(=O)c5ccco5)CC4)nc3)[nH]c2cc1C
    32.1, 2.5
- Cc1ccc2[nH]c3c(=O)n(CCC4=CCCCC4)cnc3c2c1
    31.2, -3.7
- COc1cc2cc(CN(Cc3ccc4c(c3)OCO4)C(=O)c3ccco3)c(=O)[nH]c2cc1OC
    45.8*, 57.4*
- COc1ccc(NC(=S)N2C3CCC2CC(NC(=O)NC24CC5CC(CC(C5)C2)C4)C3)c(OC)c1 (stereo not drawn)
    34.7, -7.5
- Cc1nn(C)c(C)c1/C=N/NC(=O)c1csc2ccccc12
    48.1, -0.6
- CCn1c(SCC(=O)c2ccc(CNC(C)=O)o2)nnc1-c1cccs1
    32.7, -1.6
- CCC(C)(C(=O)NC1CCCCC1)N(CC1CCCO1)C(=O)c1ccccn1 (stereo not drawn)
    79.3, -6.8
- Cc1ccc(C)c(-c2nc3ccc(N)cc3[nH]2)c1
    58.9, 20.1
- C=C1CCN([C@@H](Cc2ccccc2)C(=O)NC2CCN(Cc3ccccc3)CC2)S(=O)(=O)c2ccccc21
    56.4, -6.9
- COc1ccc2c3c(c(=O)oc2c1OCC(N)=O)CCCC3
    32.1*, 36.1*
- CCOc1ccc(C2SCC(=O)Nc3c2c(=O)[nH]n3C2CCCCCC2)cc1 (stereo not drawn)
    79.2, 5.1
- COc1ccc2nc3oc(C(=O)N4CCC(C(N)=O)CC4)cc3cc2c1
    33.7*, 34.6*
- CCn1c(Cc2ccccc2)nnc1SCC(=O)Nc1ccc2c(c1)OCCO2
    91.4, -0.7
- COc1ccc(S(=O)(=O)N(C)CC(=O)NC2CCCCC2)cc1OC
    40.1, 10.3
- C=CCN(C(=O)COc1ccccc1)c1nnc(-c2ccncc2)s1
    154.0*, 171.5*
- COc1ccccc1NC(=O)c1cc(Cl)ccc1NC(=O)c1ccco1
    107.8, -2.6
- CCCNc1cc(C)c(C#N)c2nc3ccccc3n12
    55.2, 52.0
- O=C1OCC2OC(O)C(O)C(O)C2OC(=O)c2cc(O)c(O)c(O)c2-c2c(O)c(O)c3oc(=O)c4c(c(O)c(O)c5oc(=O)c2c3c54)-c2c1cc(O)c(O)c2O (stereo not drawn)
    35.1*, 39.6*
- O=C(Oc1ccccc1)c1ccc(-n2cnnn2)cc1
    95.0, 9.0
- Cc1ccc(-c2csc3nc4ccc(C(=O)NCCO)cc4c(=O)n23)cc1
    31.0, 9.6
- O=C(Nc1nc(-c2cccs2)cs1)c1ccc(S(=O)(=O)N2CCCCC2)cc1
    46.4, 4.5
- COc1ccc(-c2oc3ncn4nc(Cc5ccccc5)nc4c3c2-c2ccc(OC)cc2)cc1
    84.2, -14.1
- COc1ccccc1CN=Cc1[nH]c2ccc(Br)c(Cl)c2c1O
    113.9, -11.1
- CC(=O)Nc1nc(S(=O)(=O)c2ccc(C)cc2)c(Cl)s1
    100.0, -0.8
- CCCCSc1nnc(CCC)n1N
    68.8, -13.1
- CSCCC(C(=O)Nc1ccc2c(c1)OCO2)N1C(=O)c2ccccc2C1=O (stereo not drawn)
    143.8, 12.2
- O=C(Nc1cccc(F)c1)C1CC(=O)N(c2ccc(Br)cc2)C1 (stereo not drawn)
    51.3, 1.1
- Cn1c(=S)n(/N=C/c2ccc3c(c2)OCO3)c2ccccc21
    31.4, 1.8
- Cc1ccc2[nH]c(=O)c(CN(CC3CCCO3)S(=O)(=O)c3c(C)ccc4nsnc34)cc2c1 (stereo not drawn)
    35.0, -7.2
- COC(=O)C(C(=O)Nc1cc(C)on1)C1CCCCCC1 (stereo not drawn)
    43.3, 7.3
- O=c1oc2c(CN3CCCCC3)c(O)ccc2c2c1CCCC2
    95.7*, 146.1*
- O=C(O)CCSc1nc2ccccc2c(=O)[nH]1
    37.3, -6.7
- Cc1ccc2oc(-c3ccco3)nc2c1
    42.9, -21.0
- COc1ccc(C(=O)/C=C/Nc2ccc([N+](=O)[O-])cc2C)c(OC)c1
    34.2, -10.7
- C=CCSc1ncccc1C(=O)NCc1ccccc1
    35.9, -6.7
- Cc1cc(Cl)c(S(=O)(=O)N2CCN(c3ccc(F)cc3)CC2)cc1OCC(N)=O
    i, 14.0
- COc1ccccc1CCn1c(N)c(C#N)c2nc3ccccc3nc21
    82.8, -17.7
- Cc1cc(C)c(C)c(S(=O)(=O)ON2C(=O)c3ccccc3C2=O)c1C
    114.1*, 163.7*
- Cc1ccc(CSc2nnc(-c3cccnc3)o2)cc1
    107.6, -1.2
- CNC(=O)Cn1nc(C)c2ccccc2c1=O
    54.7, -17.5
- CCNC(=O)c1c(N)sc2c1CCCCC2
    68.4, -2.2
- CCC(=O)N1c2ccc(C)cc2C2=NNC(=S)NC21O (stereo not drawn)
    45.8, -12.0
- N#Cc1ccccc1S(=O)(=O)N1CCN(c2ccc(S(=O)(=O)N3CCOCC3)cn2)CC1
    129.7, -16.2

# Of the compounds above, two have a tert-butyl group:
# Below each compound: RmlC RmlD mix, RmlC RmlD mix retest
- CCOC(=O)C(CSCC(=O)c1ccc(Cl)cc1)NC(=O)OC(C)(C)C (stereo not drawn)
    46.3, -9.6
- Cc1cc(-c2nnc3n2N=C(C(C)(C)C)CS3)n[nH]1
    45.3, -8.7

# Remaining list, next part:
# Below each compound: RmlC RmlD mix, RmlC RmlD mix retest
- CCCc1cc(N2CCN(C(=O)c3ccco3)CC2)n2c(nc3ccccc32)c1C#N
    39.1*, 30.8*
- N#CC1=C(SCc2ccccc2)NC2=C(C(=O)CCC2)C1c1ccc2c(c1)OCO2 (stereo not drawn)
    50.5, -1.5
- c1ccc2cc(-c3cc4ccccn4c3)ccc2c1
    90.7*, 55.6*
- CS(=O)(=O)Nc1ccc(C(=O)NCCSC2CCCCC2)cc1
    54.6, -15.6
- COc1ccc(CCNS(=O)(=O)c2cccs2)cc1
    162.3, -10.0
- CCC(C)(C)n1nnnc1C(c1cc2ccc(OC)cc2[nH]c1=O)N1CCN(C2CCCCC2)CC1 (stereo not drawn)
    84.2, -9.3

# As entered above:
# Entry for N#CC1=C(SCc2ccccc2)NC2=C(C(=O)CCC2)C1c1ccc2c(c1)OCO2 (stereo not drawn) in RmlC RmlD mix: 50.5
# Entry for CS(=O)(=O)Nc1ccc(C(=O)NCCSC2CCCCC2)cc1 in RmlC RmlD mix retest: -15.6
# Entry for CCCc1cc(N2CCN(C(=O)c3ccco3)CC2)n2c(nc3ccccc32)c1C#N in RmlC RmlD mix: 39.1*
# Entry for COc1ccc(CCNS(=O)(=O)c2cccs2)cc1 in RmlC RmlD mix: 162.3

# Screening results (PubChem BioAssay)
